# FEN1 inh = qHTS Assay for the Inhibitors of Human Flap endonuclease 1 (FEN1). P39748. Recombinant FEN1 flap cleavage, fluorescence, 15 min. Potency, µM (series often up to 114 µM), for inactives: top-dose activity change, negative = inhibition, actives largely listed as inhibitors. 390,000 tested, 0.35% active; further: nearly all actives have a fitted effect of over 65% in size
# Target sequence (P39748 whole entry, looked up): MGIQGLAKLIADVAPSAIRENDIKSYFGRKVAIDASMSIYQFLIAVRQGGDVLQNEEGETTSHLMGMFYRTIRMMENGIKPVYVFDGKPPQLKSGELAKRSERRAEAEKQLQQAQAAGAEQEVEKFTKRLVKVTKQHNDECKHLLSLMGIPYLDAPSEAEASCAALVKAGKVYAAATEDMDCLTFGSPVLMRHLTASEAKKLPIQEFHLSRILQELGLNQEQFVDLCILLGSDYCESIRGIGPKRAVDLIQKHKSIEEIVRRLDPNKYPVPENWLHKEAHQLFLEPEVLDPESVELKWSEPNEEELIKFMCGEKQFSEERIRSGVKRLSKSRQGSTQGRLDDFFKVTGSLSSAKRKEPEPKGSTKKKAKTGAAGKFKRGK
#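 Potency values derive from four-parameter Hill fits of normalized qHTS data. The reaction used 10 nM FEN1 preincubated 15 min at room temperature with compound, then 50 nM DNA substrate, read at 0 and 15 min.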
# N370S GC = qHTS Assay for Inhibitors and Activators of N370S glucocerebrosidase as a Potential Chaperone Treatment of Gaucher Disease | Lysosomal acid glucosylceramidase (Homo sapiens), P04062 | N370S GC spleen homogenate, 4MU-glucoside fluorescence | Potency, µM (titrated, usually from 59.4 µM), inactives show at the highest dose activity change, negative = inhibition, hits mostly inhibitors | 330,000 tested, 0.092% active;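 further: 0% = full enzyme activity and -100% = no enzyme basal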
# An asterisk follows results filed as active; ? = inconclusive; . = not tested or not shown; & = joins results of further samples; [ ] = remark or other dose. The call rests on the fitted dose curve; in most records, active means well fitted curve in the direction sought with a large enough effect; inconclusive means small, poorly fitted or top-dose-only effect, or another doubt; inactive means no such curve, though single readings can be large; an effect the other way counts as inactive or inconclusive. Unless noted, on the % scale 0 is the no-effect control and ±100 the full control effect; potency means the concentration at half of the fitted maximal effect. This is a subset, and most or all hits are left out here.
SMILES,FEN1 inh,N370S GC
Cn1cccc1/C=N/NC(=O)Cn1cnc2ccccc21,-13%,.
Cc1ncc(CO)c2c1Oc1nc(-c3ccccc3F)nc(SCC(=O)N(C)c3ccccc3)c1C2,-14%,-17%
Nc1ccc2nc(SCc3ccccc3F)sc2c1,-17%,9%
Cc1cc(NC(=O)CSc2nc(-c3cccs3)cc(C(F)(F)F)n2)no1,-3%,-11%
O=C(N/N=C/c1ccncc1)c1sc2ccccc2c1Cl,3%,-4%
Cc1ccc(C)c(C(C)NC(=O)c2ccccc2Br)c1 (centres undefined),2%,13%
CCOC(=O)N1CCN(C(=O)CSCc2ccccc2C)CC1,0%,6%
COc1ccc(Cc2nnc(NC(=O)CSc3ccccc3)s2)cc1,-8%,4%
C=C(C)CNC(=S)NNC(=O)c1ccc(Br)cc1,4%,6%
CCC1(C)Cc2ccccc2C(=S)N1 (centres undefined),17%,15%
CCCn1c(SCC(=O)Nc2ccccc2Oc2ccccc2)n[nH]c1=O,-2%,19%
COc1ccc(NC(=O)c2cc(-c3cccnc3)nc3ccc(C)cc23)cc1OC,8%,14%
COCCNC(=O)c1cn(C)c2ccccc2c1=O,-4%,-5%
CCC(=O)O[C@H]1C(O[C@@H]2C(C)[C@H](O[C@H]3C[C@@](C)(OC)C(O)C(C)O3)C(C)C(=O)OC(CC)[C@@](C)(O)C(O)[C@H](C)C(=O)C(C)C[C@]2(C)O)OC(C)CC1N(C)C (some centres undefined),.,11%
CC(C)NC(=O)C1CCN(C2CCN(C(=O)C3=CCCC3)CC2)CC1,-1%,0%
O=S(=O)(c1cccc(F)c1)N1CCN(c2nc(-c3cccnc3)nc3ccccc23)CC1,-19%,.
CC(C)(C)C(=O)Nc1nc2c(s1)COc1ccccc1-2,-19%,1%
CCN(CC)CC(O)COc1ccccc1C(=O)CCc1ccccc1 (centres undefined),4%,1%
COc1ccc(OC)c(Nc2nc(-c3sc(NC(=O)C(C)(C)C)nc3C)cs2)c1,-2%,3%
CCCc1c(C(=O)N/N=C/c2cccs2)nnn1-c1nonc1N,-12%,0%
CCc1ccc(NC(=O)COC(=O)CC2CCCC2)cc1,-19%,.
C=CCNC(=O)c1cc(-c2ccncc2)nc2c(C)cc(C)cc12,10%,3%
COc1cccc2c1C(=O)c1c(O)c3c(c(O)c1C2=O)C[C@](O)(C(C)=O)C[C@H]3O[C@@H]1C[C@H](N)[C@H](O)[C@H](C)O1,.,6%[21.6 µM]
CC1=CC(C)(C)N2C(=O)C3(NCCc4c3[nH]c3ccccc43)c3cc(C)cc1c32 (centres undefined),9%,-20%
CCN(CC)S(=O)(=O)c1ccc(N2CCOCC2)c(NC(=O)c2[nH]c(C)c(C(C)=O)c2C)c1,0%,.
O=C(O)c1cc2nc(C3CC3)cc(C(F)(F)F)n2n1,7%,3%
NC1=NC2(CCCCC2)N(c2ccc(F)cc2)C(N)=N1,-12%,-20%
Clc1ccc(OCCn2ccnc2)c(Br)c1,3%,-2%
Cc1c(-c2ccccc2)c(=O)oc2c(CN3CCCC3)c(O)ccc12,-6%,.
O=C1CCCCN1CCC(=O)N1CCCC(N2CCN(c3ccccc3)CC2)C1 (centres undefined),25%,0%
CCOCC(=O)Nc1c(C(=O)Nc2ccc3c(c2)OCO3)oc2ccccc12,13%,-4%
Nc1ccccc1Nc1ccccc1,-5%,-4%
COc1cc(O)c(C(CC(=O)N2CCOCC2)c2ccc(N(C)C)cc2)c(OC)c1 (centres undefined),2%&-4%,-1%&12%
O=C(CCN1C(=O)S/C(=C/c2ccccc2)C1=O)Nc1ccc(O)c(C(=O)O)c1,-20%,-18%
O=C1c2ccccc2C(=O)N1CCOc1ccccc1Cl,-2%,3%
COc1ccc(COCC(O)CN2CC(C)OC(C)C2)cc1OC (centres undefined),15%,3%
O=C(CSc1ncc(S(=O)(=O)c2ccc(Br)cc2)c(=O)[nH]1)NCc1ccc(Cl)cc1,7%,.
O=C(NCC12CC3CC(CC(C3)C1)C2)c1nc2ncccn2n1,8%,5%
COc1ccc(-c2nc3ccccc3o2)cc1NC(=O)COc1cc(C)cc(C)c1,14%,.
O=C(NCC1CCCO1)c1ccc(-c2cccc(C(F)(F)F)c2)o1 (centres undefined),-6%,10%
O=C(O)[C@H]1C[C@@H](CP(=O)(O)O)CCN1,-17%,5%&-7%
CC1(C)S[C@@H]2[C@H](NC(=O)COc3ccccc3)C(=O)N2[C@H]1C(=O)O (tested in a mixture with another compound),.,4%[21.6 µM]
COc1cccc(CNC(=O)CCSCc2ccccc2F)c1,-5%,0%
c1ccc(Cc2nnc3sc(Nc4ccccc4)nn23)cc1,18%,6%
C=CCNC(=O)CCCOc1ccc(C)cc1,4%,2%
CC(=O)Nc1ccc(NC(=S)NC(=O)C2CCCC2)cc1,-5%,-22%
Cc1cc(NC(=O)c2sc(Nc3cccc(C(F)(F)F)c3)nc2N)no1,-11%,-3%
CCCc1cc(=O)oc2cc(C)cc(OCC(=O)NCCCN3CCCC3=O)c12,17%,0%
CC1CCN(C(=O)CSc2nc3ccccc3c(=O)n2Cc2ccc3c(c2)OCO3)CC1,-21%,?
O=S(=O)(NC1=NCCCCC1)c1ccc2sc(NS(=O)(=O)c3ccc4ccccc4c3)nc2c1,-6%,16%
COc1ccc(C)cc1NC(=O)c1cc(S(=O)(=O)N2CCc3ccccc3C2)ccc1F,-9%,.
CN(C)S(=O)(=O)c1cccc(NC(=O)c2cc3ccccc3o2)c1,0%,4%
COc1cc(/C=N/n2cnnc2)ccc1OS(=O)(=O)c1ccccc1[N+](=O)[O-],0%,0%
Cc1ccccc1NC(=O)COC(=O)CCc1c[nH]c2ccccc12,1%,.
C/C(NCC(C)(C)CN(C)C)=C(/C#N)C(=O)NCc1ccccc1,6%,0%
O=c1/c(=C/c2cccc3ccccc23)sc2ncnn12,-7%,-13%
CCN(CC)S(=O)(=O)c1ccc2nnn(OCC(=O)Nc3cccc(C#N)c3)c2c1,-13%,9%
Cc1cccc2cc3c(N)c(C(=O)Nc4ccc(N5CCOCC5)cc4)sc3nc12,-14%,-12%
COc1ccc(-c2nc3ncccn3c2Nc2ccc3c(c2)OCCO3)cc1,-20%,9%
COc1cc(C(=O)Nc2ccc(C(=O)c3cccs3)cc2)cc(OC)c1OC,-24%,-2%
# (more compounds)
SMILES,FEN1 inh,N370S GC
O=C(NNC(=O)c1ccco1)c1cccc(Br)c1,0%,-12%
CC(NC(=O)c1ccc(S(=O)(=O)Nc2ccccc2Cl)cc1)c1ccncc1 (centres undefined),0%,.
Cc1cccc(N(CC(=O)Nc2ccc(CC#N)cc2)S(C)(=O)=O)c1,9%,-4%
Cc1ccc(C)c(N2CCN(c3nc4c(S(=O)(=O)c5ccccc5)nnn4c4ccc(Cl)cc34)CC2)c1,-2%,.
CCOC(=O)c1ccc(NC(=O)CSc2nnc3c4ccccc4n(CC)c3n2)cc1,-1%,.
O=C1[C@@H]2[C@@H]3C[C@@H]([C@H]4ON=C(c5ccc(Cl)cc5)[C@@H]34)[C@@H]2C(=O)N1c1ccc2c(c1)OCO2,1%,8%
COc1ccc(CCNC(=O)C(=O)NCCCN2CCOCC2)cc1,15%,17%
CC(C)CCN1CN(S(=O)(=O)c2cccs2)c2nc3ccccc3nc21,8%,5%
C=CCOc1ccc2c(=O)n(C)c3ccccc3c2c1,?,-3%
COc1cccc(CNC(=O)COC(=O)CCc2cc(OC)c(OC)c(OC)c2)c1,2%,.
N#Cc1c(N)nc2c(c1N)CC(=O)N2c1ccc(Cl)cc1,-21%,-6%
O=S(=O)(NCCc1csc(-c2ccccc2)n1)c1ccc2c(c1)OCCO2,4%,-22%

# A different layout for part of the listing above:
SMILES | FEN1 inh | N370S GC
Cc1ncc(CO)c2c1Oc1nc(-c3ccccc3F)nc(SCC(=O)N(C)c3ccccc3)c1C2 | -14% | -17%
Nc1ccc2nc(SCc3ccccc3F)sc2c1 | -17% | 9%
Cc1cc(NC(=O)CSc2nc(-c3cccs3)cc(C(F)(F)F)n2)no1 | -3% | -11%
O=C(N/N=C/c1ccncc1)c1sc2ccccc2c1Cl | 3% | -4%

# (more compounds)
SMILES,FEN1 inh,N370S GC
CCOC(=O)c1c(NC(=O)C[n+]2ccccc2)sc2c1CCCC2,-2%,-8%
Cc1cccc(OC(=O)c2cc(-c3ccc4c(c3)OCCO4)on2)c1C,2%,.
CCC1CCCCN1Cc1nc2c(c(=O)n(C)c(=O)n2C)n1Cc1ccccc1 (centres undefined),-2%,1%
c1ccc(-c2cc(N3CCCCC3)c3ccccc3n2)cc1,-10%,-5%
Cc1sc2ncn(CC(=O)N3CCN(c4ccccc4F)CC3)c(=O)c2c1S(=O)(=O)N1CCN(c2ncccn2)CC1,2%,.
COc1cc(/C=C/C(=O)OCC(=O)Nc2ccc([N+](=O)[O-])cc2)ccc1O,-25%,-13%
CCN1C(=O)[C@H]2[C@@H](c3ccc(-c4ccc(F)cc4)cc3)N[C@@](Cc3ccccc3)(C(=O)OC)[C@H]2C1=O,-7%,0%
CCc1cc(=O)[nH]c(SCc2cccnc2)n1,1%,-7%
Nc1nnc(SCc2nnc(-c3ccccc3)o2)s1,18%,-2%
CCC1(CC)NC(=O)N(CC(=O)NC(=O)NCc2ccccc2)C1=O,4%,-4%
CCCNC(=O)CN(c1cccc(F)c1)S(C)(=O)=O,14%,10%
CCc1ccc(S(=O)(=O)Nc2ccc(N3CCN(C)CC3)cc2)cc1,1%,-20%
CCn1c(SCC(=O)NCc2cccs2)nc2c1c(=O)n(C)c(=O)n2C,12%,0%
CCCCn1c(SCC(=O)N2CCOCC2)nnc1-c1cccs1,-3%,21%
COC(=O)c1ccc(COc2cccc(C)c2C)cc1,2%,2%
CN(Cc1nccs1)C(=O)C1CCC(=O)N(CCc2ccc(Cl)cc2)C1 (centres undefined),-2%,-6%
CN(/C=C/C(=O)C(F)(F)F)Cc1ccccc1,-3%,1%
O=C(COc1ccccc1F)Nc1ccc(-c2nc3ccccc3s2)cc1,6%,-5%
O=C(Cn1c(=O)oc2ccccc21)Nc1ccc(S(=O)(=O)N2CCCCC2)cc1,0%,-2%
CN(NC(=O)c1ccccc1)C1=NS(=O)(=O)c2ccccc21,-2%,-5%
CCOc1ccc(NC(=O)CN(C)C(=O)c2ccc(N3CCOCC3)c([N+](=O)[O-])c2)cc1OCC,8%,-8%
COc1ccc(-c2nn(-c3ccccc3)cc2C#N)cc1,-6%,3%
CC(C)CCCC(C)C1CCC2C3=CC[C@@H]4CC(O)CC[C@@]4(C)C3CC[C@]21C (some centres undefined),.,0%
CCc1ccc(N2C(=O)CN(Cc3ccc(OC)c(OC)c3)C2=S)cc1,1%,-5%
CNC(=O)CSc1nnc(-c2ccco2)n1-c1ccc(C)cc1,-6%,0%
NC(=O)c1ccccc1NS(=O)(=O)c1ccccc1,1%,2%
CC(C)Oc1ccc(C(=O)Nc2cccc3cccnc23)cc1,5%,?
CCOC(=O)c1cc(-c2ccccc2C)n(CC2CC(c3cccc([N+](=O)[O-])c3)=NO2)n1 (centres undefined),-16%,-14%
O=C(OCC(=O)N1CCc2ccccc21)c1c2c(nc3ccccc13)CCCCC2,-6%,6%
O=C(NCc1ccccc1)c1ccc(CS(=O)(=O)c2c(Cl)cccc2Cl)o1,-12%,.
O=c1c2c(nc3nc(COc4ccccc4)[nH]n13)CCC2,11%,5%
O=C(COc1ccc(-n2cnnn2)cc1)NC1CCCCC1,9%,0%
Cc1ccnc(N2CCC(C(=O)Nc3ccc4c(c3)OCCO4)CC2)n1,-2%,15%
Cc1c(-c2nc(-c3ccccc3)no2)nnn1-c1cccc(C(F)(F)F)c1,28%,.
COc1ccc2c(c1)[C@H]1[C@H](CO2)[C@H](c2ccccc2)[C@]2(C)C(=O)Nc3cc(C)ccc3C(=O)N12,-2%,.
CCC(=O)c1ccc(OCC(=O)Nc2cccc(S(=O)(=O)N(C)c3ccccc3)c2)cc1,9%,.
CCOc1ccc2nc(SCC(=O)Nc3cc4c(cc3C(C)=O)OCO4)[nH]c2c1,-13%,-5%
O=C(c1n[nH]c2c1CCC2)N1CCCC(Nc2cccc(F)c2)C1 (centres undefined),-4%,-7%
Cc1ccc(-c2cc(C(=O)Nc3c(C)n(C)n(-c4ccccc4)c3=O)no2)cc1,0%,9%
O=C(CCNS(=O)(=O)c1ccc(Br)cc1)NCCCSc1ccccc1,-27%,.
CC(=O)Nc1ccc2nc(-c3ccc(Br)o3)[nH]c2c1,-14%,-9%
O=C1/C(=C\c2cccs2)Sc2ccc3ccccc3c21,-6%,1%
CCOC(=O)N1CCN(Cc2nc(-c3ccccc3)no2)CC1,-12%,3%

# Taken from above for reference:
SMILES,FEN1 inh,N370S GC
O=C(CCNS(=O)(=O)c1ccc(Br)cc1)NCCCSc1ccccc1,-27%,.
CC(=O)Nc1ccc2nc(-c3ccc(Br)o3)[nH]c2c1,-14%,-9%
O=C1/C(=C\c2cccs2)Sc2ccc3ccccc3c21,-6%,1%

# 6 compounds from above, arranged by their value in N370S GC, descending.
Molecule,N370S GC
Cc1ccc(-c2cc(C(=O)Nc3c(C)n(C)n(-c4ccccc4)c3=O)no2)cc1,9%
CCOC(=O)N1CCN(Cc2nc(-c3ccccc3)no2)CC1,3%
O=C1/C(=C\c2cccs2)Sc2ccc3ccccc3c21,1%
CCOc1ccc2nc(SCC(=O)Nc3cc4c(cc3C(C)=O)OCO4)[nH]c2c1,-5%
O=C(c1n[nH]c2c1CCC2)N1CCCC(Nc2cccc(F)c2)C1 (centres undefined),-7%
CC(=O)Nc1ccc2nc(-c3ccc(Br)o3)[nH]c2c1,-9%

# Screening results: PubChem BioAssay, National Center for Advancing Translational Sciences (NCATS)
